Assay outcomes: PubChem, National Center for Advancing Translational Sciences (NCATS)
GLA inh pH 4.5: blocks human alpha-galactosidase A at pH 4.5. purified enzyme, 4-MU-alpha-Gal fluorescence, pH 4.5. P06280. 230,000 tested, under 10 active. activity change, negative = inhibition, % at 105 µM. AID 1467; inconclusive = small, poorly fitted or top-dose-only inhibition, or a rising curve; inactive = flat fitted curve, though single readings scatter; no compound was filed as active;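 also: 0% = full activity with enzyme and -100% = basal without enzyme; dose as in the result columns while the protocol names 77 µM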
Target sequence (P06280 whole entry, looked up): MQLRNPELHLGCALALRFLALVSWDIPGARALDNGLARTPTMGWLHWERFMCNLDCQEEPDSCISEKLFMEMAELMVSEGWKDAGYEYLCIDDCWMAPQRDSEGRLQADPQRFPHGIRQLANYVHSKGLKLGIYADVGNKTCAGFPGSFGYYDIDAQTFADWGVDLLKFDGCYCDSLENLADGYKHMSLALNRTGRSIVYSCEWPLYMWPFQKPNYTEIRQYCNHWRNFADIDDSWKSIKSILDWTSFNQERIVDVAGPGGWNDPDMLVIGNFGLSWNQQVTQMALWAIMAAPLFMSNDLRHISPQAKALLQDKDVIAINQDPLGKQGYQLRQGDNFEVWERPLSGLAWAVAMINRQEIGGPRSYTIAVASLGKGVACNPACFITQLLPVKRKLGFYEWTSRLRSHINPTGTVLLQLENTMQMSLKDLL
Rango release inh: prevents RanGTP from dissociating the Rango-importin beta complex; 340,000 tested, 0.071% active; Potency, µM (titrated, usually from 46.1 µM), without a hit: top-dose activity change, negative = inhibition; Biochemical FRET Rango-importin beta, RanGTP-induced dissociation; active means falling FRET ratio curve, often poorly fitted, with flat reads before Ran was added; inconclusive means other falling curves, or compound fluorescence or quenching; inactive means flat or rising ratio curve;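 also: potency is read from the fitted curve at half-maximal effect; % of control where 0% means no effect; nearly all actives have a fitted effect of over 45% in size; -100% = wells without RanGTP and RCC1; the record marks most hits as doubtful in a second field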
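FRET read at 45 min, room temperature: inhibitors block the CFP/YFP signal rise when RanGTP (0.6 uM Ran, 2 mM GTP, 0.2 uM RCC1) frees Rango (0.1 uM) from importin beta (0.25 uM). Pre-read after 5 min compound exposure flags interference.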
miR-21 reporter: miR-21 reporter, rising signal. HeLa miR-21 FLuc reporter, luciferase, 48 h. Potency, µM (titrated, usually from 38.3 µM), for the others: at the highest dose reporter change, positive = more light. 340,000 tested, under 10 active. AID 2288; active = well fitted rising curve with a large enough effect; inconclusive = small, poorly fitted or top-dose-only effect; inactive = no such curve, though single readings can be large or run the other way;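 also: % of control where 0% means no effect; miR-21 action dims this reporter so a rising signal means less miR-21 action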
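HeLa cells stably expressing CMV-driven firefly luciferase with a downstream miR-21 binding sequence, endogenously expressing miR-21, were treated with titrations (up to about 40uM final) for 48 hours at 37 degree Celsius. Luciferase luminescence was read after lysis.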
Rango complex inh: prevents formation of the Rango-importin beta complex; Q14974; Rango CFP/YFP FRET sensor + importin beta, 45 min; Potency, µM (titrated, usually from 92.2 µM), for inactives: top-dose inhibition of complex formation; 340,000 tested, 0.031% active; active = rising FRET ratio curve, often small or poorly fitted; inconclusive = mostly compound fluorescence or quenching in the first reads; inactive = flat curves in all reads;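 also: potency is read from the fitted curve at half-maximal effect; 0% = DMSO wells and 100% = buffer wells lacking importin beta; nearly all actives have a fitted effect of over 15% in size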
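FRET biosensor (snurportin 1 IBB flanked by EYFP and cerulean), 50 nM, with compound 5 min, then 0.125 microM importin beta in PBS, 1 mM DTT, 0.02% Tween-20, 0.1% BSA. CFP/YFP ratio read after 45 min at room temperature; pre-read flags interference.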
Active calls of the source: *; ? = inconclusive; · = not tested or not shown; & = joins results of further samples; [ ] = another dose, or the depositor's remark. An excerpt (hit frequency here may not be typical).

SMILES | GLA inh pH 4.5 | Rango release inh | miR-21 reporter | Rango complex inh
CCC(Oc1cc(Cl)ccc1Cl)C(=O)N1CCCN(C)CC1 (stereo not given) | · | 15.1% | 0.4% | -2.2%
COc1ccc(C(=O)Nc2ccc3ccccc3n2)cc1OC | · | -8.1% | -51.8% | 0.8%
O=C(O)c1cc(S(=O)(=O)Nc2ccccc2Cc2ccccc2)ccc1Cl | · | -3.0% | -1.4% | -0.1%
Cc1ccccc1N1CCN(C(=O)NCc2cccc(Cl)c2)CC1 | · | -4.2% | -7.5% | -2.5%
O=C(Nc1ccc(S(=O)(=O)Nc2nccs2)cc1)c1ccc(=O)[nH]c1 | 6.0 | ? | 0.6% | ?
CCOC(=O)c1ccc(NC(=S)Nc2cccc(N)n2)cc1 | -2.5 | -7.1% | -36.7% | 2.9%
CCOC(=O)c1cc(-c2ccccc2C)n(CC2CC(c3cccc([N+](=O)[O-])c3)=NO2)n1 (stereo not given) | · | -4.2% | · | -0.1%
CCOC(=O)c1c(-c2cccs2)csc1NC(=O)c1ccco1 | -6.9 | 0.2% | -19.9% | -0.1%
CC(Nc1cccc([N+](=O)[O-])c1)C(=O)Nc1ccc(S(=O)(=O)N2CCCC2)cc1 (stereo not given) | · | -3.5% | · | -1.8%
CCc1ccccc1NC(=O)C1CCN(c2cnccn2)CC1 | · | -7.6% | -0.5%&2.7% | -0.5%
O=C(O)c1cc2ccccc2[nH]1 | 1.3 | 2.3% | · | -4.1%
COc1ccc(N2CCN(CCCNC(=S)Nc3c(C)cccc3C)CC2)cc1 | 1.4[21.1 µM] | 4.7% | -4.3% | 0.4%
CCc1nnc(NC(=O)CSc2nnc(C3CCCCC3)n2-c2cccc(Cl)c2)s1 | 6.4 | -7.3% | -0.2% | -0.7%
COc1ccc(OCC(=O)NCc2ccc(Cl)cc2)cc1 | · | 7.1% | -3.5% | 5.1%
Cc1ccc(-c2nnn(CC(=O)O)n2)cc1 | 1.5 | -14.4% | -8.3% | 0.0%
O=c1oc(-c2ccccc2)nc2sc3c(c12)CCC3 | -10.8 | ? | -1.6% | ?
Cc1ccc(NC(=O)Nc2cnccn2)cc1C | -22.6 | -0.9% | -19.4% | ?
O=C(/C=C/c1ccccc1)NCCSCc1ccc(Cl)cc1 | -9.9 | -12.1% | -8.6% | -4.2%
COc1ccc(Cl)cc1C(=O)NCCS(=O)(=O)N1CCN(c2ccccc2F)CC1 | · | 16.6% | -3.5% | -1.9%
O=C(/C=C/c1ccccc1)NC(NC(=S)Nc1ccc(Cl)cc1Cl)C(Cl)(Cl)Cl (stereo not given) | -10.7 | -2.5% | ? | 0.8%
O=C(Nc1ccc(C(=O)O)cc1)/C(=C/c1ccc([N+](=O)[O-])cc1)NC(=O)c1ccccc1 | -16.0 | 2.9% | 1.9% | 1.2%
c1ccc(-c2noc(CSc3nnnn3-c3ccccc3)n2)cc1 | -6.5 | -3.8% | -16.0% | 1.7%
CC(C)CCn1c(CN2CCOCC2)nc2c1c(=O)n(C)c(=O)n2C | 2.3 | 17.4% | -0.5% | -5.2%
CCOC(=O)c1sc(C)c2c1NC1(CCCCCC1)NC2=O | 7.0 | 0.9% | -6.2% | 1.3%
O=C(NNC(=O)c1sccc1-n1cccc1)c1ccc(Cl)cc1 | 5.2 | 1.8% | -1.3% | 4.4%
COc1ccc(CNC(=O)c2cc(S(=O)(=O)N3CCCCC3)ccc2N2CCOCC2)cc1OC | · | 12.3% | · | 8.1%
CCOC(=O)CCSc1nc(-c2ccccc2)cc(C(F)(F)F)n1 | -7.7 | 1.3% | -7.6% | -1.5%
COc1ccc2oc(C(=O)OCC(=O)Nc3ccccc3)c(C)c2c1 | · | -16.0% | -11.2% | 1.3%
CCCN(CC1CC1)C(=S)NC(=O)c1cc(Br)ccc1Cl | · | 26.6% | · | 2.5%
CCC(=O)NCCNC(=O)c1c(SC)nsc1SC | 1.4 | 0.2% | -2.5% | 0.0%

Arranged by length of the SMILES (ascending): part of the list above.
SMILES | GLA inh pH 4.5 | Rango release inh | miR-21 reporter | Rango complex inh
Cc1ccc(NC(=O)Nc2cnccn2)cc1C | -22.6 | -0.9% | -19.4% | ?
Cc1ccc(-c2nnn(CC(=O)O)n2)cc1 | 1.5 | -14.4% | -8.3% | 0.0%
CCC(=O)NCCNC(=O)c1c(SC)nsc1SC | 1.4 | 0.2% | -2.5% | 0.0%
COc1ccc(OCC(=O)NCc2ccc(Cl)cc2)cc1 | · | 7.1% | -3.5% | 5.1%
O=C(/C=C/c1ccccc1)NCCSCc1ccc(Cl)cc1 | -9.9 | -12.1% | -8.6% | -4.2%
CCOC(=O)c1sc(C)c2c1NC1(CCCCCC1)NC2=O | 7.0 | 0.9% | -6.2% | 1.3%
CCCN(CC1CC1)C(=S)NC(=O)c1cc(Br)ccc1Cl | · | 26.6% | · | 2.5%
c1ccc(-c2noc(CSc3nnnn3-c3ccccc3)n2)cc1 | -6.5 | -3.8% | -16.0% | 1.7%
COc1ccc2oc(C(=O)OCC(=O)Nc3ccccc3)c(C)c2c1 | · | -16.0% | -11.2% | 1.3%
CC(C)CCn1c(CN2CCOCC2)nc2c1c(=O)n(C)c(=O)n2C | 2.3 | 17.4% | -0.5% | -5.2%
COc1ccc(N2CCN(CCCNC(=S)Nc3c(C)cccc3C)CC2)cc1 | 1.4[21.1 µM] | 4.7% | -4.3% | 0.4%
CCc1nnc(NC(=O)CSc2nnc(C3CCCCC3)n2-c2cccc(Cl)c2)s1 | 6.4 | -7.3% | -0.2% | -0.7%
COc1ccc(Cl)cc1C(=O)NCCS(=O)(=O)N1CCN(c2ccccc2F)CC1 | · | 16.6% | -3.5% | -1.9%
O=C(/C=C/c1ccccc1)NC(NC(=S)Nc1ccc(Cl)cc1Cl)C(Cl)(Cl)Cl (stereo not given) | -10.7 | -2.5% | ? | 0.8%
COc1ccc(CNC(=O)c2cc(S(=O)(=O)N3CCCCC3)ccc2N2CCOCC2)cc1OC | · | 12.3% | · | 8.1%
O=C(Nc1ccc(C(=O)O)cc1)/C(=C/c1ccc([N+](=O)[O-])cc1)NC(=O)c1ccccc1 | -16.0 | 2.9% | 1.9% | 1.2%

(listing goes on)
SMILES | GLA inh pH 4.5 | Rango release inh | miR-21 reporter | Rango complex inh
COc1ccc(NC(=O)CCCN2C(=O)C3CC=CCC3C2=O)cc1 (stereo not given) | · | -15.6% | -5.0% | -4.4%
O=C(OCC(=O)N1CCCc2ccccc21)c1ccc(Cl)nc1 | 6.1 | -28.5% | -7.6% | -2.4%
Cc1ccc(NC(=O)CCC(=O)NNC(=O)c2ccccc2)c(C)c1 | 11.3 | 2.8% | -1.3% | 1.1%
COc1cccc(-c2cc(C(=O)N3C(C)CCCC3C)no2)c1 (stereo not given) | -15.0 | -7.9% | -72.4% | 3.9%
Cc1cc(NC(=O)CSc2ncnc3c2cnn3-c2ccccc2)no1 | 0.6 | -10.7% | 3.2% | 0.2%
COC(=O)CN1C(=S)N(c2ccc(F)cc2)C(=O)C1CC(=O)Nc1ccccc1 (stereo not given) | · | -6.2% | -2.6% | 1.5%
Cc1ccc(-c2cc(C(=O)O)c3ccccc3n2)s1 | · | 15.4% | -15.6% | -1.5%
Cc1cccc(C#N)c1NC1=CC(=O)CC(C)(C)C1 | 3.1 | 0.9% | -3.2% | 0.5%
Cc1c(Cl)cnc(NC(=O)COC(=O)C2CC2)c1Cl | · | 7.2% | · | -1.9%
O=c1[nH]nc(SCc2nc3ccccc3s2)n1C1CC1 | 4.9 | -13.4% | -43.1% | ?
O=C(OCc1cc(Cl)cc2c1OCOC2)c1cccnc1Cl | · | 10.8% | · | ?
O=C(OC12CC3CC(CC(C3)C1)C2)c1ccc(NCc2cc(O)ccc2O)cc1 | · | 4.1% | · | 0.6%
O=[N+]([O-])c1ccc(O)c(/C=N/n2cnc3ccccc32)c1 | -11.5 | 0.5% | -30.0% | -2.9%
C=CCOc1ccc(C(=O)O)cc1Cl | · | -4.2% | 2.0% | ?
CC(NC(=O)CCc1ccccc1)c1cc2c(cc1Cl)OCCO2 (stereo not given) | 2.1 | 0.4% | -15.6% | 0.8%
CCOC(=O)CCC(=O)c1c(C)oc2ccc(OC)cc12 | -0.6 | -8.4% | -6.9% | -1.3%
CC(C)(C)OC(=O)C[C@H]1C/C=C\C[C@@H](CC(=O)N(CCO)Cc2ccccc2)C(=O)N2CCC[C@H]2COC1=O | · | -0.6% | · | -3.3%
CCC(=O)NC(=S)Nc1ccc(NC(=O)c2cc3ccccc3o2)c(OC)c1 | 3.5 | 20.7% | -16.5% | 1.9%
CCOC(=O)C1(Cc2cccc(OC)c2)CCN(Cc2cccc(OC)c2O)CC1 | -26.9 | 9.0% | -1.1% | -3.0%
O=C(Nc1nc(-c2ccccn2)cs1)Nc1ccc(F)cc1F | · | -1.5% | -1.2% | 0.0%
C/C(=N/NC(=O)c1ccncc1)c1ccccc1 | · | 9.5% | -15.4% | -1.2%
CCN(CC)CC(=O)n1c2c(c3ccccc31)CCCC2 | -5.8 | 2.5% | -5.0% | 0.6%
COc1ccc2c(c1)C(=O)OC2CC(=O)O (stereo not given) | 3.3 | 10.5% | -9.8% | -2.9%
CN(CCc1ccccn1)C(=S)Nc1ccc(Cl)c(Cl)c1 | 3.8 | 8.3% | -12.6% | -2.0%
c1ccc(Cc2nn3c(COc4ccccc4)nnc3s2)cc1 | -1.8 | 21.8% | -32.6% | 4.7%
c1csc(Cc2nc(-c3ccc(-n4cccc4)cc3)no2)c1 | · | -13.2% | · | -3.3%
CC(C)C(C(=O)Nc1sc2c(c1C#N)CCCCC2)N1C(=O)c2ccccc2C1=O (stereo not given) | 9.2 | -2.4% | -12.0% | 4.8%
O=C(CN1C(=O)/C(=C/c2ccco2)SC1=S)NC1CCS(=O)(=O)C1 (stereo not given) | · | 1.0% | 4.4% | 0.3%
CCOc1ccc2c(c1)s/c(=N\S(=O)(=O)c1ccc(OC)cc1)n2C(F)F | 0.3 | 2.6% | -5.1% | -0.7%
Cc1ccc(C2/C(=C(\O)c3c(C)nc4ccccn34)C(=O)C(=O)N2CCN(C)C)o1 (stereo not given) | -5.5 | 3.0% | -8.0% | 2.4%
CC1CC(C)CN(C(=O)COC(=O)c2ccc[nH]c2=O)C1 (stereo not given) | 5.3 | -1.0% | 0.6% | 3.0%
COc1ccc(Cl)cc1N(CC(=O)Nc1ccccc1C(=O)N1CCCC1)S(C)(=O)=O | · | 0.3% | -6.6% | 0.6%
CSC(=NC#N)N1CCN(C(=NC#N)SC)CC1 | -3.0 | 1.2% | 1.7% | 2.4%
CC(=O)Nc1ccc(NC(=O)CSc2nnnn2-c2ccc3c(c2)OCCO3)cc1 | 4.8 | -7.0% | -0.5% | -3.6%
COc1ccccc1NC(=O)c1c(C)nc2ccccc2c1C(=O)O | 2.5 | 2.9% | 4.4% | 1.0%
CCSc1nnc(NC(=O)CSc2nccn2-c2cc(C)cc(C)c2)s1 | 1.2 | 0.5% | -0.8% | -1.4%
CCCCCC(=O)Nc1sc(C)c(C)c1C#N | -0.3 | 0.9% | -36.9% | 0.8%
C=CCOc1c(Br)cc(CNc2ccc(NC(=O)C(C)C)cc2)cc1OCC | 1.6 | -7.5% | -1.3% | 3.0%
O=C1N(CN2CCC3(CC2)OCCO3)c2ccccc2C12OCCCO2 | 0.4 | 3.5% | 2.2% | -1.2%
CCOc1ccc(N2C(=O)Nc3ccccc3C2(O)C(=O)NCc2ccco2)cc1 (stereo not given) | -10.8 | 3.3% | 0.7% | 0.8%
COc1cc(OC)c(/C=N/NC(N)=S)cc1Br | 4.3 | 0.9% | -10.5% | -0.8%
C=CCNC(=O)CSc1ncc2c(n1)-c1c(csc1SC)CC2 | 20.4 | 37.6% | -4.2% | ?
Cc1ccc(OC(=O)C2CCN(C(=O)c3ccccc3C)CC2)c(Br)c1 | · | 6.3% | · | 5.8%
Cn1c(-c2sc3cc(C(F)(F)F)cnc3c2-c2ccccn2)n[nH]c1=S | 7.0 | 1.0% | -6.2% | -1.0%
